GIV Gai3 FP: blocks GIV peptide binding to rat Galpha-i3 | 0.42% of 210,000 active | AID 1224905 | P08753 | percent of control (FP), % (concentration not given with the values) | Galpha-i3/FITC-GIV peptide fluorescence polarization, 90 min; active compounds read low; scaled: aluminum fluoride 0%, vehicle 100%;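 active = replicate mean at 85% of control or lower, very high polarization wells dropped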;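 also: wells of about 15 µL received 100 nL stock; the first replicate is given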
Target sequence (P08753 whole entry, looked up): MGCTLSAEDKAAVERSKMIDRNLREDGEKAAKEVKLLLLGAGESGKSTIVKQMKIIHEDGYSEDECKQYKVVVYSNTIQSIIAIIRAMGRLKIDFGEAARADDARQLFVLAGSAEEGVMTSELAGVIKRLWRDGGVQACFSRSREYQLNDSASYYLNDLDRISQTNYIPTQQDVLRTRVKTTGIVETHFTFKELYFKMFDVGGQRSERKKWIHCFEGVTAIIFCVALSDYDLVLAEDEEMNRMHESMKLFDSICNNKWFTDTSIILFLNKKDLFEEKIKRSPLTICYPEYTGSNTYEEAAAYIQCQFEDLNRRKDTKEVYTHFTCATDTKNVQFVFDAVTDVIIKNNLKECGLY
HCMV NEC inh: disrupts HCMV UL50-UL53 complex binding. HTRF UL50-UL53 interaction, normalized percent inhibition. inhibition, % (no concentration beside the values). 0.15% of 190,000 active;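 active = both replicates at 50% or more, plus weaker picks with an unusually low signal ratio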;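 also: stock transfer was 100 nL into about 20 µL; 0% = negative control wells and 100% = wells with untagged competitor protein; inactives centre near -12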
Sa growth 42C: S. aureus growth inhibition. S. aureus RN4220 growth, OD600, 20 h, 42 °C; active compounds read low. relative growth, % (test concentration not listed). 0.53% of 170,000 active;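 active = growth at 42 °C up to 50% and 20 or more points under that at 30 °C, or under 10% at both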;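 also: 300 nL library stock went into each well; scaled to the means of positive and negative controls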
Sa growth 42C second temp: further read-out of Sa growth 42C, marked with its call; relative growth, %; measured here: growth at 30 °C;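 optical density after 20 h as mean of two plates; 100% = untreated growth and lower means inhibition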
* marks the source's active call; other numbers are inactive results; x = no result given; & = joins results of further samples.

Preview:
Abbreviations – A = GIV Gai3 FP; B = HCMV NEC inh; C = Sa growth 42C; D = Sa growth 42C second temp
[1] O=C(CCc1cn(Cc2ccc(F)cc2)c2ccccc12)NCCc1ccc(Cl)cc1
  A: 110; B: x; C: 119; D: 101
[2] Cc1nn(CC(=O)NCCSCc2ccco2)c(C)c1Br
  A: 105; B: -34; C: 96; D: 94
[3] CCOC(=O)N1CCN(C(=O)COC(=O)C2=C(Nc3ccccc3)OCC2=O)CC1
  A: x; B: -13; C: 99; D: 100

The list itself, repeating the preview:
Abbreviations – A = GIV Gai3 FP; B = HCMV NEC inh; C = Sa growth 42C; D = Sa growth 42C second temp
[1] O=C(CCc1cn(Cc2ccc(F)cc2)c2ccccc12)NCCc1ccc(Cl)cc1
  A: 110; B: x; C: 119; D: 101
[2] Cc1nn(CC(=O)NCCSCc2ccco2)c(C)c1Br
  A: 105; B: -34; C: 96; D: 94
[3] CCOC(=O)N1CCN(C(=O)COC(=O)C2=C(Nc3ccccc3)OCC2=O)CC1
  A: x; B: -13; C: 99; D: 100
[4] COc1cccc(OC)c1OC(=O)c1cc(C)ccc1C
  A: x; B: -8; C: 118; D: 85
[5] CCS(=O)(=O)CCc1nnc(NC(=O)Nc2cccc(C(F)(F)F)c2)s1
  A: 109; B: x; C: 99; D: 100
[6] CCS(=O)(=O)c1ccc(S(=O)(=O)CC)s1
  A: 104; B: -8; C: 118; D: 100
[7] Cc1ccc(S(=O)(=O)N2CCN(CC(=O)c3c(C)[nH]c4ccccc34)CC2)cc1
  A: x; B: -17; C: 95; D: 85
[8] CSc1cccc(NC(=O)c2cnn(-c3ccc(F)cc3)c2-n2cccc2)c1
  A: 103; B: x; C: 91; D: 107
[9] CCN(CC)c1nc(C(F)(F)F)nc2c1nnn2Cc1ccccc1
  A: 98; B: -6; C: 80; D: 97
[10] COc1ccc(OC)c(CCNC(=O)c2cc3cccc4c3n2CCS4)c1
  A: 107; B: x; C: 106; D: 97
[11] Cc1ccc(-c2nn3cnnc3s2)cc1
  A: 105; B: -18; C: x; D: x
[12] COc1ccc(C)cc1NC(=O)CN1C(=O)COc2ccc(S(=O)(=O)N3CCC(C)CC3)cc21
  A: 114; B: x; C: 127; D: 88
[13] Cn1cnnc1Sc1nc2ccccc2nc1Cl
  A: x; B: -80; C: 94; D: 93
[14] CCOC(=O)c1cnc(-c2ccccc2)nc1NCc1ccccc1
  A: x; B: -2; C: 83; D: 96
[15] O=[N+]([O-])c1cccc(C2CC(c3ccccc3)=NN2S(=O)(=O)c2ccccc2)c1 (stereo unspecified)
  A: 111; B: -5; C: x; D: x
[16] CCN(CC)Cn1nc2c3c(cccc3c1=O)-c1ccccc1-2
  A: 105; B: x; C: 106; D: 50
[17] CCCS(=O)c1ccc2nc(NC(=O)OC)[nH]c2c1 (stereo unspecified)
  A: 101; B: -8&-5; C: 93; D: 84
[18] OC(CSc1ccccc1)CN1CCN(c2nccc(C(F)(F)F)n2)CC1 (stereo unspecified)
  A: 109; B: x; C: 109; D: 91
[19] COc1ccc(CNC(=O)c2ccc3c(c2)nc2n3CCC(C)C2)c(OC)c1 (stereo unspecified)
  A: 104; B: x; C: 83; D: 91
[20] CCOC(=O)N1CCc2c(sc3c2c(=O)n(-c2ccc(CC)cc2)c(=O)n3CC(=O)Nc2ccc(C)cc2)C1
  A: 105; B: -30; C: 102; D: 93
[21] O=C(CCN1CCC(c2ccccc2)C1)c1cccs1 (stereo unspecified)
  A: 105; B: x; C: 57; D: 70
[22] CN(C(=O)c1cc2c(=O)oc3ccccc3c2n1C)C1CCCCC1
  A: 107; B: -10; C: x; D: x
[23] COc1ccc2oc(-c3ccc(NC(=S)NC(=O)COc4ccccc4)cc3)nc2c1
  A: 104; B: 7; C: 123; D: 106
[24] COc1ccc(C(=O)Nc2cccc(-c3noc(C)n3)c2)c(OC)c1
  A: 105; B: -15; C: x; D: x
[25] Cc1cc(OCc2nnc(SCC(=O)OC(C)C)o2)ccc1Cl
  A: 105; B: -12; C: 125; D: 104

Reformatted: entries from further up
Values in the order: GIV Gai3 FP, HCMV NEC inh, Sa growth 42C, Sa growth 42C second temp
(14) CCOC(=O)c1cnc(-c2ccccc2)nc1NCc1ccccc1
→ x, -2, 83, 96
(15) O=[N+]([O-])c1cccc(C2CC(c3ccccc3)=NN2S(=O)(=O)c2ccccc2)c1 (stereo unspecified)
→ 111, -5, x, x
(13) Cn1cnnc1Sc1nc2ccccc2nc1Cl
→ x, -80, 94, 93
(23) COc1ccc2oc(-c3ccc(NC(=S)NC(=O)COc4ccccc4)cc3)nc2c1
→ 104, 7, 123, 106
(19) COc1ccc(CNC(=O)c2ccc3c(c2)nc2n3CCC(C)C2)c(OC)c1 (stereo unspecified)
→ 104, x, 83, 91

New compounds follow.
Abbreviations – A = GIV Gai3 FP; B = HCMV NEC inh; C = Sa growth 42C; D = Sa growth 42C second temp
[26] O=S(=O)(c1ccc(S(=O)(=O)N(Cc2ccccn2)CC2CCCO2)cc1)N1CCCCC1 (stereo unspecified)
  A: 102; B: -14; C: x; D: x
[27] CC(=O)Oc1ccc(N2C(=O)C3C4C=CC(C(OC(C)=O)OC(C)=O)(O4)C3C2=O)cc1 (stereo unspecified)
  A: x; B: -17; C: 103; D: 81
[28] CCOC(=O)CNc1nc(Oc2ccc(=O)n(C)n2)nc(N(CC)CC)n1
  A: 105; B: -13; C: 87; D: 87
[29] COc1ccc(CNC(=O)CN2C(=O)CSc3ccc(S(=O)(=O)N4CCCC4)cc32)cc1
  A: 110; B: x; C: 134; D: 92
[30] COc1ccc(-c2nn3cnnc3s2)cc1
  A: 104; B: -24; C: 83; D: 77
[31] COc1ccc(/C=N/NC(C)(C)C)cc1O
  A: x; B: -20; C: 98; D: 100
[32] CN(C)S(=O)(=O)c1ccc2oc3nnc(SCCCC(=O)N4CCOCC4)n3c2c1
  A: x; B: -13; C: 85; D: 93
[33] C=CCN(C(=O)CSc1cc(=O)n(CC)c2ccccc12)c1ccccc1
  A: 102; B: x; C: 35; D: 38
[34] CCOC(=O)C1=C(C)N=c2s/c(=C\c3ccc(OC(C)=O)c(OCC)c3)c(=O)n2C1c1ccc(OC)c(OC)c1 (stereo unspecified)
  A: 105; B: -22; C: x; D: x
[35] CCC(NC(=O)Nc1ccc(C)cc1)c1c(-n2cccc2)sc2c1CCN(C)C2 (stereo unspecified)
  A: 119; B: 10; C: x; D: x
[36] Cc1nn(-c2ccccc2)c(C)c1/C=C/C(=O)OCC(=O)Nc1c(C#N)oc2ccccc12
  A: x; B: -19; C: 70; D: 98
[37] O=C(c1ccccc1)N1CCN(CC(O)COc2ccc(Cl)cc2Cl)CC1 (stereo unspecified)
  A: x; B: 8; C: 121; D: 96
[38] O=C(CN1CC(C(=O)N2CCOCC2)Oc2ccccc21)Nc1ccccc1C(=O)NC1CCCC1 (stereo unspecified)
  A: x; B: 19; C: 110; D: 105
[39] O=C(O)c1cccc(S(=O)(=O)N2CCc3ccccc3C2)c1
  A: x; B: -4; C: 118; D: 100
[40] Cc1noc2c1C(c1ccccc1)C1=C(CC(c3ccc(Cl)cc3)CC1=O)N2 (stereo unspecified)
  A: 109; B: -17; C: x; D: x
[41] O=C(c1cc(-c2ccccc2)nc2ccccc12)N1CCN(Cc2ccc3c(c2)OCO3)CC1
  A: 99; B: -18; C: x; D: x
[42] Cc1c2c(n3c(nc4ccccc43)c1C#N)N(C1CCCC1)CC2
  A: 101; B: -16; C: 91; D: 90
[43] CCC(SC1=Nc2ccccc2C2=NC(C)C(=O)N12)C(=O)Nc1c(C)cccc1C (stereo unspecified)
  A: 109; B: -10; C: x; D: x
[44] Cc1csc2sc(C=NCc3cccs3)c(C)c12
  A: 100; B: -20; C: 104; D: 92
[45] CCn1ccc(C(=O)NC2=C(C#N)CCC2)n1
  A: 102; B: 5; C: 102; D: 88
[46] CC(Sc1nncn1C)C(=O)c1ccc(C(C)(C)C)cc1 (stereo unspecified)
  A: x; B: -22; C: 107; D: 93
[47] O=c1oc2c(-c3cc(Cl)cc(Cl)c3)cc(O)cc2s1
  A: x; B: 12; C: 100; D: 103
[48] Cc1cc(Cl)ccc1OCCCC(=O)Nc1ccccc1C(F)(F)F
  A: x; B: -7; C: 91; D: 83
[49] Clc1ccc(-c2noc(-c3cccnc3NCC3CCCO3)n2)cc1 (stereo unspecified)
  A: 101; B: -15; C: x; D: x
[50] CC(C)CC(=O)n1nc(-c2cccnc2)nc1NCc1ccccc1
  A: 96; B: -11; C: 80; D: 80

Going on with the list.
Abbreviations – A = GIV Gai3 FP; B = HCMV NEC inh; C = Sa growth 42C; D = Sa growth 42C second temp
[51] Cc1cc2nc3s/c(=C/c4ccc5c(c4)OCO5)c(=O)n3c2cc1C
  A: 95; B: -8; C: 93; D: 83
[52] O=C(CSc1nnc2sc3ccccc3n12)NC1CCCCC1
  A: 99; B: -17; C: x; D: x
[53] O=C(CCNS(=O)(=O)c1ccc2c(c1)CCN2C(=O)C1CC1)Nc1ccc(F)cc1F
  A: 101; B: x; C: 116; D: 83
[54] Cc1ccc(C)c(N2CCN(C(=O)c3nn(C)c4c3CS(=O)(=O)c3ccccc3-4)CC2)c1
  A: 98; B: -14; C: 118; D: 88
[55] CC(C)Cn1c(=O)c2ccccc2n2c(=S)[nH]nc12
  A: 102; B: -12; C: x; D: x
[56] C=CCN(C)C1CC(=O)N(c2ccc(C)c(Cl)c2)C1=O (stereo unspecified)
  A: 100; B: -17; C: 132; D: 74
[57] O=C(Cc1ccc(Cl)cc1)N1CCC(c2nc(-c3ccc(Cl)cc3)no2)CC1
  A: 93; B: -3; C: x; D: x
[58] N/C(=N\O)c1cc(Cl)cc(Cl)c1
  A: 108; B: 1; C: 103; D: 73
[59] COc1cccc(C(=O)CN2CCN(S(=O)(=O)c3ccc(Cl)cc3)CC2)c1
  A: 108; B: x; C: 111; D: 93
[60] Cc1ccc(Nc2nc3ccccc3c3nncn23)c(Cl)c1
  A: 104; B: 0; C: 95; D: 96
[61] CC(CNC(=O)c1ccc2c(c1)nc1n2CCCCC1)c1ccccc1 (stereo unspecified)
  A: 101; B: x; C: 85; D: 87
[62] CCOC(=O)c1c(C)[nH]c(-c2csc(C)n2)c1C
  A: x; B: -29; C: 131; D: 87
[63] N#CC(c1cccc(C(F)(F)F)c1)N1CCOCC1 (stereo unspecified)
  A: 100; B: -4; C: x; D: x
[64] Cc1ccc(-c2nn(CC(=O)Nc3cccc(C(F)(F)F)c3)c(=O)c3ccccc23)cc1
  A: 102; B: -10; C: 85; D: 82
[65] COc1cc(NC(=O)Cn2nc(C(F)(F)F)c(Br)c2C)cc([N+](=O)[O-])c1
  A: 102; B: -2; C: x; D: x
[66] O=c1ccc(-c2ccccc2Br)nn1Cc1nc(-c2ccc3c(c2)OCO3)no1
  A: 111; B: -1; C: x; D: x
[67] CCOC(=O)N1CCC(NC(=O)c2cc(S(=O)(=O)NCCc3ccccc3)ccc2F)CC1
  A: 105; B: -26; C: 101; D: 92
[68] Cc1ccc2c(n1)sc1c(O)cc(=O)[nH]c12
  A: 113; B: -12; C: 106; D: 89
[69] CCN1CCN(C2(CNC(=O)c3oc4cc(Br)ccc4c3C)CCCCC2)CC1
  A: 105; B: -5; C: x; D: x
[70] CCOc1ccc(C(=O)c2cnc3ccc(Cl)cc3c2S(=O)(=O)c2ccc(C)cc2)cc1
  A: 101; B: -28; C: 122; D: 99
[71] COc1ccc(-c2nc3ccccc3o2)cc1NC(=O)c1ccc(-c2ccc(C)c(Cl)c2)o1
  A: 106; B: -30; C: 100; D: 89
[72] Cc1c(NS(=O)(=O)c2ccc(C(C)C)cc2)c(-n2cnnc2)nn1C
  A: 98; B: -33; C: x; D: x
[73] CC(=O)N1c2ccc(S(=O)(=O)NCc3ccccc3Cl)cc2CC1C (stereo unspecified)
  A: 102; B: 5; C: 104; D: 79
[74] C=CCOC(=O)C1=C(C)Nc2[nH]c(=O)[nH]c(=O)c2C1c1ccccc1 (stereo unspecified)
  A: 103; B: 4; C: 112; D: 102
[75] CNC(=O)CCC(=O)N1CC(C)Oc2ccccc21 (stereo unspecified)
  A: 105; B: -18; C: 87; D: 82

Along the list, as entered above:
GIV Gai3 FP for nos. 65 to 69: 102, 111, 105, 113, 105
HCMV NEC inh for nos. 65 to 69: -2, -1, -26, -12, -5

Additional results follow.
Abbreviations – A = GIV Gai3 FP; B = HCMV NEC inh; C = Sa growth 42C; D = Sa growth 42C second temp
[76] Cc1[nH]c(C)c2c(=O)n(-c3ccccc3)ncc12
  A: 105; B: 1; C: 90; D: 85
[77] NNC(=O)CNS(=O)(=O)c1ccccc1
  A: 100; B: -10; C: 105; D: 113
[78] O=C(Nc1ccccc1N1CCCCC1)C1=CCCCC1C(=O)O (stereo unspecified)
  A: 103; B: -5; C: 101; D: 89
[79] CCOC(=O)c1oc2ccc(Br)cc2c1CSc1nnc(C(C)(C)C)n1N
  A: x; B: -41; C: 73; D: 88
[80] CCC(C)c1ccc(NC(=O)COC(=O)c2cccc(F)c2)cc1 (stereo unspecified)
  A: x; B: -12; C: 124; D: 93
[81] CCOC(=O)c1cnn(-c2ncnc3c2cnn3C)c1C(F)(F)F
  A: 101; B: -32; C: 99; D: 86
[82] CCOc1ccc(C=C2C(=O)OC(c3ccccc3)OC2=O)cc1 (stereo unspecified)
  A: 101; B: x; C: 90; D: 79
[83] O=C(NCC1CCCO1)c1ccc(NC(=O)c2ncn[nH]2)cc1 (stereo unspecified)
  A: 109; B: -10; C: 111; D: 83
